Screens: PubChem BioAssay, National Center for Advancing Translational Sciences (NCATS)
HPGD inh: qHTS Assay for Inhibitors of HPGD (15-Hydroxyprostaglandin Dehydrogenase); purified HPGD, NADH fluorescence kinetic, PGE2 substrate; Potency, µM, for the others: at the highest dose activity change, negative = inhibition, usual class: inhibitors; 150,000 compounds, 4.3% hits; active = well fitted inhibition curve with a large enough effect (not every such curve was filed as active); inconclusive = small, poorly fitted or top-dose-only effect, or another doubt; inactive = no such curve, though single readings can be large or run the other way;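 further: top concentration of the series not given in the record; plate controls included wells without enzyme; inactives centre near -10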
Target sequence (P15428 whole entry, looked up): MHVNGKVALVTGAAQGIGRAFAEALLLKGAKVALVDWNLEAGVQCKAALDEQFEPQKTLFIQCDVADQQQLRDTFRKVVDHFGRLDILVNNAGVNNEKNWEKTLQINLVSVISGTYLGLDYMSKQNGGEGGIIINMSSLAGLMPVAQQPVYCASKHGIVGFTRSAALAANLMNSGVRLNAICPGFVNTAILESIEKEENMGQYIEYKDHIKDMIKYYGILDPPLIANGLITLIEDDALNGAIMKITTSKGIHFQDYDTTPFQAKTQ
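NADH formation kinetics: reaction with 30 uM PGE2 and 1 mM NAD+ (final), 20 nM enzyme, Tris-HCl pH 8 with Tween 20, after 15 min compound preincubation at room temperature. Fluorescence change, last versus first of five reads.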
Active calls of the source: *; u = inconclusive. On the % scale 0 is the no-effect control and ±100 the full control effect; potency means the concentration at half of the fitted maximal effect.

SMILES | HPGD inh
CCC(C)[C@H](NC(=O)NCC1CCCO1)C(=O)OC (some centres not stated) | -7%
O=C(O)C1CC(c2ccccc2)=NO1 (configuration not stated) | -12%
CC1CC(C(F)(F)F)n2nc(C(=O)O)cc2N1 (configuration not stated) | -9%
CCN(CC)CCCN1C(=O)C(=O)/C(=C(/O)c2ccc3c(c2)OCCO3)C1c1ccco1 (configuration not stated) | -18%
Cn1c(SCC#N)nnc1-c1cccnc1 | 0%
CCOC(=O)C1=C(N)Oc2c(c(=O)[nH]c3ccccc23)C1c1ccccc1 (configuration not stated) | -7%
Cc1cc(C)n(-c2nc(Nc3ccccc3C(F)(F)F)nc(-n3nc(C)cc3C)n2)n1 | -10%
COc1ccc(NC(=O)/C(Cl)=C(/Cl)S(=O)Cc2ccc(C)cc2)cn1 (configuration not stated) | -27%
Cc1ccc(-n2c(SCC(=O)OC(C)C)nnc2-c2ccccn2)cc1 | -16%
COC(=O)C1=C(C(=O)OC)[C@@H]2Nc3ccccc3[C@@]23C[C@@H](C(=O)OC)N(C(=O)COCc2ccccc2)C3=N1 | -14%
COc1ccccc1Nc1nc(C)cc(C)c1C(N)=O | -5%
CN(CC(O)COc1ccc(S(=O)(=O)N2CCOCC2)cc1)C1CCCCC1 (configuration not stated) | -1%
O=C(Cn1ccsc1=NC(=O)c1ccco1)c1ccccc1 | -7%
C=CC1=C(C)C2=Cc3c(C=C)c(C)c4[n]3[Sn+2][n]3c(c(C)c(CCC(=O)O)c3=CC3=NC(=C4)C(C)=C3CCC(=O)O)=CC1=N2 | -19%
CN1C[C@H](C(=O)N[C@]2(C)O[C@@]3(O)[C@H]4CCCN4C(=O)[C@H](Cc4ccccc4)N3C2=O)C[C@H]2c3cccc4[nH]cc(c34)C[C@@H]21 | -5%
COc1ccc(NC(=O)CC2SC(=Nc3ccccc3)NC2=O)c(OC)c1 (configuration not stated) | -5%
Nc1c(-c2cccc([N+](=O)[O-])c2)nc2ccccn12 | -22%
COc1ccc(C)cc1NC(=O)CCCN1C(=S)NC(C)(C)CC1C (configuration not stated) | -5%
O=C(OCc1ccccc1Cl)c1ccccc1C(=O)c1ccccc1 | -9%
Cc1n[nH]c(=S)n1/N=C/c1ccccc1OCc1ccc(Cl)cc1Cl | -7%
CCOC(=O)c1ccc(N2C(=O)C=CC2=O)cc1 | 1.4µM*
O=C(NN=C1CCCCC1)NC1CCCCC1 | -10%
CCOc1ccc(-c2nnn(CC(=O)NCCc3c[nH]c4ccccc34)n2)cc1 | -8%
CCOC(=O)N1CCN(C(=S)Nc2ccc3nc(N4CCN(CC)CC4)cc(C)c3c2)CC1 | u
Cn1c(CCNC(=O)c2ccccc2Cl)n[nH]c1=S | -13%

Structures listed so far with a CF3 group, in the order listed:
SMILES | HPGD inh
CC1CC(C(F)(F)F)n2nc(C(=O)O)cc2N1 (configuration not stated) | -9%
Cc1cc(C)n(-c2nc(Nc3ccccc3C(F)(F)F)nc(-n3nc(C)cc3C)n2)n1 | -10%

(listing goes on)
SMILES | HPGD inh
CC(=O)Nc1nc2ccccc2n1CCN1CCOCC1 | -3%
C=CCn1c(CNC(=O)c2ccccc2C)nnc1SCC(=O)NC1CCCC1 | 3%
O=C(NCCN1C(=O)S/C(=C\c2ccc(OC(F)F)cc2)C1=O)[C@@H]1CCCN1C(=O)c1cccs1 | -10%
COc1ccc(NS(=O)(=O)c2cccc(Cl)c2)cc1S(=O)(=O)N1CCCCC1 | -9%
CCS(=O)(=O)N1CCN(S(=O)(=O)c2ccccc2)CC1 | -12%
CC(=O)C1C(c2ccc(F)c(F)c2)NC(=O)NC1(O)C(F)(F)F (configuration not stated) | 3%
O=C(CCSc1ccccc1)NC1CCCC1 | 14µM*
O=C(CCCc1nc(-c2ccc(Cl)cc2)no1)Nc1cccnc1 | -9%
O=C(Cn1cc2c(n1)CCCC2)NCCCN1CCN(c2ccccc2F)CC1 | -7%
Cc1nn(-c2ccccc2)c2nc(N)c(C#N)c(-c3ccc(F)cc3)c12 | u
CC(=O)N[C@@H](CSC(=O)[C@]1([C@@H](O)C(C)C)NC(=O)[C@H](C)[C@@H]1O)C(=O)O | -7%
Cc1cc(OCC(=O)N2CCCCCC2)ccc1[N+](=O)[O-] | -6%
CCOC(=O)C1CCN(CCC(=O)Nc2cccc(Cl)c2C)CC1 | -4%
O=C(NCc1cccs1)C(Cc1ccccc1)n1cccc1 (configuration not stated) | -1%
Clc1ccc2nc(CSc3nc4ccccc4o3)cn2c1 | -10%
O=C(N/N=C/c1cccc(O)c1)c1csc2ccccc12 | -21%
CC1=CS(=O)(=O)CC1Sc1nc2ccccc2[nH]1 (configuration not stated) | 0%
CC(=O)OC1COC(N2CCc3cc(Br)c([N+](=O)[O-])cc32)C(OC(C)=O)C1OC(C)=O (configuration not stated) | 1%
CCOC(=O)c1ccc(N2C(=O)CC(N3CCN(Cc4ccccc4)CC3)C2=O)cc1 (configuration not stated) | -4%
O=C(NCCCN1CCC(Cc2ccccc2)CC1)C1CCC(=O)N1C1CCCC1 (configuration not stated) | -13%
COc1cccc(N/C(SCc2ccccc2Cl)=C(/C#N)C(=O)NCc2cccs2)c1 | -9%
CCOc1ccccc1NC(=O)Cc1c(F)cccc1Cl | -1%
Cn1c(C(=O)O)cc2cc(F)ccc21 | u
COc1ccc(C(=O)Nc2cccc(NC(C)=O)c2)cc1OC | -13%
CCC(C)[C@H](NC(=O)NCc1ccccc1Cl)C(=O)O (some centres not stated) | 2%
O=C(CCC(=O)OCCCC(F)(F)C(F)(F)F)Nc1ccccc1 | 1%
COc1ccc(-c2nc(-c3ccccc3)nc(Cl)c2C#N)cc1 | u
Cc1cc(NS(=O)(=O)c2ccc(NC(=O)c3ccoc3C)cc2)nc(C)n1 | -19%
COCCCNC(=O)/C=C/c1c(Cl)cccc1Cl | 16µM*
Cc1cc(C(=O)NNC(=O)CCCCC(=O)NNC(=O)c2cc(C)[nH]n2)n[nH]1 | -13%
COc1ccc(-c2[nH]c3ccccc3c2SCCNC(=O)c2cc3ccccc3oc2=O)cc1 | -17%
O=C(Nc1nnc(-c2ccc3c(c2)CCCC3)o1)c1ccccc1 | -23%
Cc1ccc(C2/C(=C(/O)c3ccc(OC(C)C)cc3)C(=O)C(=O)N2CCN2CCOCC2)cc1 (configuration not stated) | -17%
COc1cccc2sc(N(CCCN(C)C)C(=O)c3sc4ccccc4c3Cl)nc12 | -11%
Cc1ccc(SCc2nc(-c3ccccn3)no2)cc1 | 2%
CCN(CC)C(=O)CSc1nc(N)c2c3c(sc2n1)CC(C)CC3 (configuration not stated) | 14µM*
CC(O)c1c(OCc2ccccc2)ncnc1OCc1ccccc1 (configuration not stated) | u
Cn1c(Cn2c(=O)sc3ccccc32)nnc1SCC(=O)NCc1ccco1 | -6%
COc1ccc(-c2nc3cnc(N4CCNCC4)nc3n(CCC#N)c2=O)cc1 | -28%
COc1cccc(CNc2ccc(N3CCCCC3)cc2)c1OC | -14%
COC(=O)N/N=C/c1cc(C)n(-c2cccc3ccccc23)c1C | -12%
CC(C)/C=C1\CC/C(=C\c2ccc(N(C)C)cc2)C1=O | -2%
CCN(CC)S(=O)(=O)c1ccc(Br)c(OC)c1 | -6%
COc1cc(C(=O)N2CCN(c3cc(Cl)ccc3Cl)CC2)cc(OC)c1OC | 1%
O=C(Oc1c(CN2CCOCC2)cc(Cl)c2cccnc12)c1ccc(F)cc1 | -13%
COc1ccc(CCNC(=O)c2ccc3nc(-c4ccco4)c(-c4ccco4)nc3c2)cc1OC | u
O=C(NCCCN1CCOCC1)c1ccc(Sc2ccc(F)cc2)c([N+](=O)[O-])c1 | -2%
O=C(NN=C1CCCCCC1)c1ccc(Br)o1 | -10%
COc1ccc(NC(=O)CSc2nnc(CNc3ccc(F)cc3)o2)c(OC)c1 | -15%
CN(C)/C(=N\S(=O)(=O)c1ccccc1)c1ccc([N+](=O)[O-])cc1 | 1%

Further entries:
SMILES | HPGD inh
Cc1c(C(=O)NCCCN2CCOCC2)sc2nc(-c3ccc(F)cc3)cn12 | -1%
COc1cc(C2C(C(C)=O)=C(C)Nc3ncnn32)ccc1O (configuration not stated) | -8%
O=C(NC(Cc1c[nH]c2ccccc12)C(=O)Nc1ccc(F)c([N+](=O)[O-])c1)c1cccs1 (configuration not stated) | -3%
CC1=Nn2c(nnc2-c2cc(-c3ccccc3)n[nH]2)SC1 | -8%
CCOC(=O)c1c(NC(=S)Nc2ccc(C)cc2)sc2c1CCC2 | -8%
CCCN1C(=O)c2cc(C(=O)NC3CCCCCC3)ccc2C1O (configuration not stated) | -6%
CC1(C)Cc2c(sc3nc(-c4cccs4)n(N)c(=O)c23)CO1 | -6%
CCOC(=O)CSc1nc(C(C)(C)C)cc(C(F)(F)F)c1C#N | -10%
CCn1c(SCC(=O)NCc2cccs2)nnc1-c1cccs1 | -9%
Cc1nc2c(-c3ccc(F)cc3)c(C)nn2c(C)c1CCC(=O)NC(C)CCc1ccco1 (configuration not stated) | -17%
O=C(/C=C/c1ccc(Cl)cc1)N(c1ccccn1)C1CCCCC1 | -18%
O=C(N/N=C/c1cccc(OC2CSC2)c1)c1ccccc1O | -23%
Cc1ccc(CNC(=O)c2cccc(-n3cnnn3)c2)cc1 | -11%
CN(C)c1ccc(NC(=O)CSc2nnc(-c3cccs3)n2Cc2ccco2)cc1 | -11%
CCn1nc(C)c(C2C(C#N)=C(N)Oc3n[nH]c(C)c32)c1C (configuration not stated) | -4%
CCOC(=O)CN1CC23C=CC(O2)C(C(=O)NCc2ccc(C)cc2)C3C1=O (configuration not stated) | 16µM*
CCOc1ccc(OCc2cccc(C(=O)Nc3ccc(CN4CCCCC4)cc3)c2)cc1 | -15%
N#CC1=C(N)SC(N)=C(C#N)C1CCC1CCCCC1 | 16µM*
COCCCn1c(Cc2csc(Nc3ccccc3)n2)nnc1SCC(N)=O | -14%
Cc1sc(NC(=O)c2ccccc2F)c(CN2CCCCC2C)c1C (configuration not stated) | -12%
CN(C)C=Nc1ncc2c3ccccc3n(Cc3ccccc3)c2c1C#N | u
CC(Sc1nc2c(c(=O)n(C)c(=O)n2C)n1Cc1cc2c(cc1Cl)OCO2)C(=O)O (configuration not stated) | -18%
CSc1nc2ccc(S(=O)(=O)N3CCCC3)cc2s1 | -2%
Cc1ccc(CN2CCN(C(=O)c3ccco3)CC2)cc1 | 1%
CCOC(=O)CSc1nnc(Cc2cc(=O)[nH]c(=O)[nH]2)n1-c1cccc(OC)c1 | -12%

Grouped by structure: the entries above containing a COOH group (7)
SMILES | HPGD inh
O=C(O)C1CC(c2ccccc2)=NO1 (configuration not stated) | -12%
CC1CC(C(F)(F)F)n2nc(C(=O)O)cc2N1 (configuration not stated) | -9%
C=CC1=C(C)C2=Cc3c(C=C)c(C)c4[n]3[Sn+2][n]3c(c(C)c(CCC(=O)O)c3=CC3=NC(=C4)C(C)=C3CCC(=O)O)=CC1=N2 | -19%
CC(=O)N[C@@H](CSC(=O)[C@]1([C@@H](O)C(C)C)NC(=O)[C@H](C)[C@@H]1O)C(=O)O | -7%
Cn1c(C(=O)O)cc2cc(F)ccc21 | u
CCC(C)[C@H](NC(=O)NCc1ccccc1Cl)C(=O)O (some centres not stated) | 2%
CC(Sc1nc2c(c(=O)n(C)c(=O)n2C)n1Cc1cc2c(cc1Cl)OCO2)C(=O)O (configuration not stated) | -18%

Next records
SMILES | HPGD inh
CC(Sc1nc(-c2ccccc2)cc(C(F)(F)F)n1)C(=O)Nc1sc2c(c1C(N)=O)CCC2 (configuration not stated) | 32µM*
CCC(C)n1cnc2c(c1=O)c1nc3ccccc3nc1n2Cc1ccccc1OC (configuration not stated) | -25%
CCc1c(C)nc(SCC(=O)Nc2c(C)n(C)n(-c3ccccc3)c2=O)[nH]c1=O | -10%
COc1ccc(NC(=O)CSc2nc3ccccc3n2-c2ccccc2)c([N+](=O)[O-])c1 | -17%
O=C(NCCCN1CCCC1=O)c1cccc(C(F)(F)F)c1 | -2%
CN(CC(=O)N1CCc2ccccc21)S(=O)(=O)c1cccs1 | -8%
CCCOC(=O)Cc1c(O)c2ccccc2[nH]c1=O | u
Cc1ccc(C)c(NC(=O)C2CC(=O)N(C(C)C)C2)c1 (configuration not stated) | -7%
COCCNC(=O)C1CC(c2ccc(F)cc2)=NO1 (configuration not stated) | -13%
O=C(NCC(=O)N(Cc1ccco1)C(C(=O)NC1CCCC1)c1ccncc1)c1cccs1 (configuration not stated) | 2%
CCOC(=O)c1c(NC(C)=O)sc2c1CCC(C=O)=C2Sc1ccccc1 | 35µM*
Cc1cc(NC(=O)c2cn(C3CCCCC3)c(=O)c3c2c2ccccc2n3C)no1 | u
COc1c(C)cccc1C(=O)Nc1ccc(N2CCN(S(C)(=O)=O)CC2)cc1 | -6%
CCOc1ccccc1NC(=O)CSc1nnnn1Cc1ccccc1 | -12%
COc1cccc(/C=N/NC(=O)c2nc(-c3ccccc3)cc(-c3ccccc3)n2)c1O | -15%
COc1cccc(-n2cnnn2)c1 | -6%
COc1ccc(OCC(=O)Nc2cc(C)c(Cl)cc2OC)c([N+](=O)[O-])c1 | -1%
CCC(=O)Nc1cc(Cl)ccc1C(=O)O | -11%
CCC(C=C[C@@H]1OC(=O)C=C[C@H]1C)=C[C@H](C)CC=CC(C)=C[C@@H](C)C(=O)[C@@H](C)[C@H](O)[C@@H](C)CC(C)=CC(=O)O | 0%

Some of the compounds tested; rates above refer to the full screens.
